Rango release inh: inhibitors of RanGTP-induced Rango-importin beta complex dissociation; Biochemical FRET Rango-importin beta, RanGTP-induced dissociation; actives 0.071% (n = 340,000); AID 540253; Potency, µM (top dose mostly 46.1 µM), for the others: at the top dose activity change, negative = inhibition; O95149+P62826; active means falling FRET ratio curve, often poorly fitted, with flat reads before Ran was added; inconclusive means other falling curves, or compound fluorescence or quenching; inactive means flat or rising ratio curve;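 note: potency is the fitted concentration of half-maximal effect; % of control where 0% means no effect; nearly all actives have a fitted effect of over 45% in size; -100% = wells without RanGTP and RCC1; the record marks most hits as doubtful in a second field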
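Compounds preincubate 5 min with complex of recombinant Rango and importin beta in PBS with 1 mM DTT. Ran (0.6 uM) loaded with 2 mM GTP plus 0.2 uM RCC1 starts dissociation; FRET is recorded 45 min later.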
miR-21 FLuc: raises the signal of a miR-21 reporter | 340,000 tested, under 10 active | Potency, µM (titrated, usually from 38.3 µM), for inactives: top-dose reporter change, positive = more light | HeLa miR-21 FLuc reporter, luciferase, 48 h; active = well fitted rising curve with a large enough effect; inconclusive = small, poorly fitted or top-dose-only effect; inactive = no such curve, though single readings can be large or run the other way;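 note: % of control where 0% means no effect; miR-21 action dims this reporter so a rising signal means less miR-21 action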
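Luminescence from a firefly luciferase reporter carrying a miR-21 binding site downstream, stably expressed under a CMV promoter in HeLa cells that make miR-21 endogenously, reports miRNA modulation after 48 h compound exposure up to approximately 40uM final.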
GLA inh pH 4.5: blocks human alpha-galactosidase A at pH 4.5; 230,000 tested, under 10 active; activity change, negative = inhibition, % at 105 µM; P06280; purified enzyme, 4-MU-alpha-Gal fluorescence, pH 4.5; inconclusive = small, poorly fitted or top-dose-only inhibition, or a rising curve; inactive = flat fitted curve, though single readings scatter; no compound was filed as active;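 note: 0% = full activity with enzyme and -100% = basal without enzyme; dose as in the result columns while the protocol names 77 µM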
Target sequence (P06280 whole entry, looked up): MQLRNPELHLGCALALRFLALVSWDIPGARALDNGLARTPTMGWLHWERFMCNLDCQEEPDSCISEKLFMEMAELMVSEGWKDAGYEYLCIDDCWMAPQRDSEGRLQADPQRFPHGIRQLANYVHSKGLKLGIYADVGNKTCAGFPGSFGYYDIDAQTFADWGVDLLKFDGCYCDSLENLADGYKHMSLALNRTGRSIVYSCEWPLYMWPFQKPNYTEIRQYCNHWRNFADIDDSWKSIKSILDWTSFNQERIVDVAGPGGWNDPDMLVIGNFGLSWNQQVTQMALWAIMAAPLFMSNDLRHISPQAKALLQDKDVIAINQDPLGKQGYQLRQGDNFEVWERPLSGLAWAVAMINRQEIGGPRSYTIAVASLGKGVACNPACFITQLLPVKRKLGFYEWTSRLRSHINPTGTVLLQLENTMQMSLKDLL
Rango-impB inh: inhibitors of Rango-importin beta complex formation | Potency, µM (highest dose often 92.2 µM), without a hit: top-dose inhibition of complex formation | actives 0.031% (n = 340,000) | Rango CFP/YFP FRET sensor + importin beta, 45 min | Q14974; active = rising FRET ratio curve, often small or poorly fitted; inconclusive = mostly compound fluorescence or quenching in the first reads; inactive = flat curves in all reads;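 note: potency is the fitted concentration of half-maximal effect; 0% = DMSO wells and 100% = buffer wells lacking importin beta; nearly all actives have a fitted effect of over 15% in size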
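Inhibition scored from the CFP 486 nm/YFP 530 nm FRET ratio 45 min after adding 0.125 microM importin beta to 50 nM Rango biosensor preincubated 5 min with compound (room temperature, PBS with DTT, Tween-20, BSA). No-importin wells as positive control.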
* hit, by the source's call; u = inconclusive; x = not tested or not shown; & = joins results of further samples. Only part of the results is shown (hit frequency here may not be typical).

Field names – A = Rango release inh; B = miR-21 FLuc; C = GLA inh pH 4.5; D = Rango-impB inh
CCOC(=O)N1CCC(Nc2c(Nc3cccc(CC)c3)c(=O)c2=O)CC1
  A = -11.6% | B = 6.0% | C = 6.2 | D = -1.9%
CNC(=O)COc1ccc2oc3c(c2c1)CCCC3
  A = -2.3% | B = -45.4% | C = x | D = 0.4%
CCn1c(C2CC(=O)N(c3ccc(C)c(C)c3)C2)nc2ccccc21 (centres undefined)
  A = 15.0% | B = -2.1% | C = -3.0 | D = -3.6%
COC(=O)c1cc(CNC(=O)Cc2ccsc2)ccc1OC
  A = u | B = 0.3% | C = x | D = -0.5%
CCC(=O)NC(=S)NNC(=O)c1ccc([N+](=O)[O-])cc1
  A = 9.8% | B = -4.1% | C = -7.3 | D = 2.4%
COc1ccc(C)cc1Nc1n[n+](-c2ccccc2)c(-c2ccc(NC(C)=O)cc2)s1
  A = -4.7% | B = 3.0% | C = x | D = 4.2%
Cc1cc(C)cc(NC(=O)CN(C)S(=O)(=O)c2cccc3nsnc23)c1
  A = -16.7% | B = -6.8% | C = -5.5 | D = u
COc1cccc(/C=N/Nc2cc(-n3nc(C)cc3-c3ccccc3)ncn2)c1O
  A = -15.3% | B = 13.1% | C = u | D = 0.8%
c1ccc(CN2CCC(N=C3NN=C(c4ccc5c(c4)OCCO5)CS3)CC2)cc1
  A = 5.6% | B = -19.4% | C = 6.0 | D = 0.6%
O=C(c1ccccc1Br)N1CCN(c2ncccn2)CC1
  A = -3.1% | B = 0.3% | C = x | D = -2.0%
O=C(NC1CC1)c1ccc(-n2cccc2)cc1
  A = -4.0% | B = -43.7% | C = -7.0 | D = 1.0%
C/C(=N\O)c1ccccc1C(=O)O
  A = -12.0% | B = -1.8% | C = 4.1 | D = u
COc1cccc(C(=O)NC(=S)Nc2ccc3oc(=O)ccc3c2)c1
  A = -27.5% | B = -7.8% | C = 1.6 | D = -3.0%
CC(=O)c1cccc(N=Nc2c(-c3ccccc3)[nH]n(-c3ccccc3)c2=O)c1
  A = -16.6% | B = -1.3% | C = -11.9 | D = -3.5%
Cc1cccc(-c2nnc(SCc3nc4ccccc4[nH]3)n2Cc2ccco2)c1
  A = 1.0% | B = 4.7% | C = -6.2 | D = -5.0%
Cc1ccccc1CNC(=O)c1ccc2nc(N3CCOCC3)sc2c1
  A = -0.9% | B = 5.2% | C = x | D = -2.1%
Cc1ccccc1OCCN(C#N)c1nc(N(C)C)nc(N(C)C)n1
  A = 6.6% | B = -1.7% | C = -8.2 | D = 0.4%
COc1ccc(OC)c(S(=O)(=O)N2CCCC2C(=O)N2CCc3ccccc3C2)c1 (centres undefined)
  A = 13.9% | B = 6.0% | C = x | D = 4.4%
O=C(CCNS(=O)(=O)c1ccccc1)N1CCCCCCC1
  A = 18.2% | B = x | C = x | D = -2.5%
COC(=O)[C@@H]1CCCN1C(=O)c1ccc(OC2CCN(Cc3ccccn3)CC2)cc1
  A = -6.4% | B = 2.8% | C = x | D = -2.8%
Cc1cc(C(=O)Nc2cc(Br)ccc2O)on1
  A = -1.4% | B = 4.8% | C = x | D = 0.9%
N#Cc1c(NC(=O)CSc2n[nH]c(Cc3ccccc3)n2)oc(-c2ccccc2)c1-c1ccccc1
  A = -4.3% | B = 4.0% | C = -13.5 | D = -2.5%
Cc1cc(C(=O)N2CCN(c3ccccc3O)CC2)c(C)o1
  A = u | B = x | C = x | D = 3.0%
CCOC(=O)CN1C(=O)S/C(=C\c2ccc3c(c2)OCO3)C1=O
  A = -10.1% | B = -3.9% | C = x | D = u
Cc1ccc(OCc2ccoc2C(=O)O)cc1C
  A = 7.4% | B = -19.1% | C = 3.5 | D = 11.3%
Cc1cc(C)n(-c2ccc(C(=O)Nc3cccc(S(=O)(=O)N4CCCC4)c3)cc2)n1
  A = -8.1% | B = 24.7% | C = -19.3 | D = 2.4%
Cc1cc(C)n(CC(=O)N2c3ccccc3Sc3ccccc32)n1
  A = -7.3% | B = -9.4% | C = -4.4 | D = -0.3%
COc1ccc(NC(=O)COC(=O)Cc2c[nH]c3ccccc23)cc1OC
  A = -2.2% | B = 2.2% | C = 0.9 | D = -2.6%
COc1ccc(OC)c(-n2nnnc2SCC(=O)NCCc2ccccc2)c1
  A = -9.1% | B = -1.6% | C = u | D = u
CCc1ccccc1NC(=O)COc1ccc(C(=S)N2CCCC2)cc1
  A = -6.1% | B = 0.2% | C = 4.7 | D = 0.8%
Cc1nc(-c2coc3c(CN(C)C)c(O)ccc3c2=O)cs1
  A = 0.7% | B = -24.7% | C = 1.5 | D = 0.1%
CCc1nnc(NS(=O)(=O)c2ccc(N/C=C\C(=O)c3cccc(OC)c3)cc2)s1
  A = u | B = -59.0% | C = -22.8 | D = u
CCCc1nc(Cl)c(C#N)c2c1CCCC2
  A = 1.2% | B = 0.2% | C = 3.6 | D = -2.3%
O=C(Nc1ccccc1N1CCCCC1)c1ccccc1F
  A = -2.5% | B = 1.9% | C = -7.7 | D = -4.2%
CC(C)N(CCO)C(=O)CCc1nnc(Cc2cccc(C(F)(F)F)c2)o1
  A = -8.8% | B = -12.6% | C = -4.5 | D = 0.9%
Cc1ccc(-c2cc(C(F)(F)F)n3ncc(C(=O)N4CCCc5ccccc54)c3n2)cc1
  A = -0.4% | B = -0.9% | C = -5.4 | D = -2.1%
C/C(=N\NC(=O)C1CCCN(S(=O)(=O)c2ccccc2)C1)c1cccnc1 (centres undefined)
  A = 1.0% | B = -5.5% | C = -19.2 | D = 2.7%
CCOc1ccc(S(=O)(=O)N2CCN(C(=O)c3cccn3C)CC2)cc1
  A = -2.4% | B = -1.8% | C = -1.0 | D = -5.9%
O=[N+]([O-])c1cccc(/C=C2\CCC(/C=N/Nc3ccc4ccccc4n3)=C2N2CCOCC2)c1
  A = -16.0% | B = -3.8% | C = -9.4 | D = u
CCS(=O)(=O)c1nc(S(=O)(=O)c2ccc(Cl)cc2)c(NCCN2CCOCC2)s1
  A = 11.6% | B = -0.8% | C = x | D = 0.9%
CC(C(=O)OCc1nnc(-c2ccccc2)o1)N1C(=O)C2CCCCC2C1=O (centres undefined)
  A = 5.0% | B = -33.2% | C = 1.7 | D = -2.1%
O=C(Cn1cc2c(n1)CCCCC2)Nc1ccccc1Br
  A = -0.5% | B = -35.6% | C = 1.4 | D = -2.0%
O=C(O)c1ccc(-n2nnnc2Oc2ccccc2C(=O)N2CCOCC2)cc1
  A = 12.5% | B = -3.7% | C = -3.8 | D = -0.5%
CCSCCc1nnc(NC(=O)Nc2cccc(C(F)(F)F)c2)s1
  A = -10.4% | B = u | C = 4.7 | D = -0.2%
CCN(CC)C(=O)n1cnc(-c2ccccc2)c1-c1ccccc1
  A = -18.1% | B = 27.7% | C = -7.7 | D = 9.6%
CC(c1ccco1)N(C(=O)c1cccs1)c1ccccn1 (centres undefined)
  A = 2.0% | B = -3.2% | C = -0.4 | D = 0.3%
CCCCN(C(=O)c1ccc2c(c1)OCO2)c1ccccc1
  A = 3.7% | B = 7.9% | C = 0.2 | D = 1.7%
COc1cccc(C(=O)Nc2cccc(-c3ccc4nncn4n3)c2)c1OC
  A = 3.1% | B = -1.4% | C = -6.0 | D = -0.2%
Cc1ccc(C2=NN(C(=O)CCC(=O)O)C(c3ccc4c(c3)OCO4)C2)cc1 (centres undefined)
  A = -23.6% | B = -11.1% | C = x | D = u
COCCOC(=O)/C=C1/NC(=O)CS1
  A = -2.6% | B = -2.6% | C = -3.5 | D = -3.7%

(listing goes on)
Field names – A = Rango release inh; B = miR-21 FLuc; C = GLA inh pH 4.5; D = Rango-impB inh
O=S(=O)(Nc1cccc(-c2nc3cccnc3s2)c1)c1cccs1
  A = -7.3% | B = -46.7% | C = -5.8 | D = 4.0%
O=C(CCN1CCN(c2ccccc2F)CC1)Nc1ccccc1F
  A = 0.3% | B = -34.9% | C = -1.4 | D = 1.0%
COc1ccc(S(=O)(=O)N2CCC(N3CCN(Cc4ccccc4)CC3)CC2)cc1
  A = 0.7% | B = -3.1% | C = -2.7 | D = 2.6%
Cn1c(=O)c2c(ncn2CC(=O)OCC(=O)Nc2ccccc2)n(C)c1=O
  A = 5.2% | B = -2.3% | C = -9.8 | D = 3.0%
COc1ccc(CCCc2nnc(SCC(=O)Nc3ccc(OC)cc3)o2)cc1
  A = 3.4% | B = -0.6%&-13.0% | C = -5.8 | D = 1.2%
Cc1ccc(NC(=O)CCC(=O)c2ccc(F)cc2)cc1Cl
  A = 27.1% | B = -1.7% | C = -21.5 | D = -5.1%
CS(=O)(=O)N(CC(=O)Nc1ccc(F)cc1)C1CCCCC1
  A = -6.5% | B = 0.5% | C = x | D = 2.0%
COc1cc2c(cc1NC(=O)Nc1ccc(C)cc1)oc1ccccc12
  A = -12.1% | B = -18.7% | C = -1.2 | D = -12.6%
O=C(Nc1nc(C2C3CC4CC(C3)CC2C4)cs1)c1cc2cc([N+](=O)[O-])ccc2oc1=O (centres undefined)
  A = -17.1% | B = -3.8% | C = -4.8 | D = -1.0%
CCCOc1ccccc1C1NC(=O)NC(C)=C1C(=O)OCCOCC (centres undefined)
  A = u | B = -2.5% | C = -1.6 | D = u
NS(=O)(=O)c1cccc(NC(=O)Cn2nc(C(=O)O)c3ccccc3c2=O)c1
  A = 40.9% | B = -0.7% | C = x | D = 4.2%
O=C(CCc1nc2ccccc2c(=O)[nH]1)Nc1cccc(S(=O)(=O)N2CCCCC2)c1
  A = -2.7% | B = x | C = x | D = 2.9%
c1ccc(CCCNCCCn2cnc3c(OCc4ccccc4)ncnc32)cc1
  A = 10.8% | B = x | C = x | D = -1.6%
Cc1ccc(NC(=S)NNc2ncc(C(F)(F)F)cc2Cl)cc1
  A = 2.2% | B = u | C = 2.5 | D = 2.5%
O=C(O)c1ccc2c(=O)[nH]c(CCl)nc2c1
  A = -4.8% | B = 5.2% | C = 5.4 | D = -2.0%
Cc1ccc(CSCCNS(C)(=O)=O)cc1
  A = -1.6% | B = -5.1% | C = -2.7 | D = 1.2%
Clc1ccc2nc(-c3ccc4c(c3)OCO4)cn2c1
  A = -1.1% | B = 9.7% | C = 4.6 | D = -3.8%
CCN1C(=O)[C@@H]2[C@@H](c3ccc(-c4ccc(C(C)=O)cc4)cc3)N3CCCC[C@@]3(C(=O)OC)[C@@H]2C1=O
  A = 4.6% | B = x | C = x | D = 0.0%
COc1ccc(/C=C/C(=O)c2sc(-c3ccc(Cl)cc3)nc2C)cc1
  A = x | B = -3.8% | C = -14.0 | D = x
O=C(CSc1nnc(SCc2ccc(Cl)cc2)s1)N/N=C/c1ccccc1C(=O)O
  A = -28.8% | B = -16.7% | C = 0.2 | D = 3.6%
COc1ccnc(Oc2ccc(F)cc2)c1C(=O)N/C=N/OCc1ccc(F)cc1Cl
  A = 15.8% | B = -0.9% | C = -19.7 | D = 5.3%
CN(CCC#N)Cc1cc(=O)oc2ccc3ccccc3c12
  A = 0.9% | B = -12.1% | C = -2.6 | D = 1.8%
O=C1OC(N2CCN(C(=O)C3CCCO3)CC2)c2ccccc21 (centres undefined)
  A = -14.4% | B = 0.4% | C = -2.1 | D = 2.0%
